Compound activity as filed in PubChem.
Autofluor counter – counter-screen for toxin protease inhibitors: compound fluorescence | 360,000 tested, 3.1% active | compound autofluorescence counterscreen, microsphere flow cytometry; active compounds read high | fluorescence intensity (test concentration not listed) | AID 624483;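 active means at least 3 SD above the mean of all compounds, about 16000 in these data; inconclusive means too few beads counted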;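 further: 100 nL of 1 mM stock went into each well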
RN4220 kill – kills Staphylococcus aureus RN4220. S. aureus RN4220 growth, OD600, 16 h. inhibition, % (test concentration not listed). 330,000 tested, 0.33% active. AID 1259311;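 active means z-score of -3 or lower and OD600 up to 0.18 on both plates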;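 further: plate controls were untreated cells for no effect and reference antibiotic for full effect; stock transfer was 100 nL into about 80 µL; one replicate is shown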
ugtP null kill – compounds lethal to S. aureus RN4220 ugtP deletion mutant. 330,000 tested, 0.54% active. growth inhibition, % (no concentration beside the values). OD600 growth, 16 h; some inactives read as strong as hits;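 active means z-score under -3 and OD600 up to 0.15 on both plates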;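 further: plate controls were untreated wells for no effect and antibiotic for full effect; wells of about 80 µL received 100 nL stock; the first replicate is given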
BJeLR viability – BJeLR cell viability loss. inhibition, % (no concentration beside the values). BJeLR (HRASV12) viability, CellTiter-Glo ATP luminescence, 48 h; reference of the scale not given here. 300,000 tested, 0.17% active. AID 1554;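 active means replicate mean above 50%; inconclusive means above 50% but judged a plate artefact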;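 further: 50 nL library stock added to about 25 µL; numbers are from one replicate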
Mtb hypoxia rep – Mtb hypoxia fluorescent reporter inhibition; fluorescence inhibition, % (test concentration not listed); 300,000 tested, 0.1% active; M. tuberculosis hypoxia-regulated fluorescent reporter, fluorescence;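 active means 35 to 45% if threefold the growth effect, above 45% if 1.5-fold the growth effect; inactive means the rest, general growth blockers included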;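 further: wells of about 50 µL received 100 nL stock; 0% = vehicle wells and 100% = reference inhibitor wells; whole bacteria with a GFP reporter of the hypoxia response; strong numbers were not always called active; many hits fall short of the cut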
PrP 5UTR inh – inhibition of PrP 5' UTR reporter expression; 340,000 tested, 0.35% active; cell-based PrP 5' UTR mRNA reporter, plate reader; inhibition, % (test concentration not listed);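 active means every replicate at 50% or more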;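 further: 0 = median of the neutral control wells; tested in H4 reporter cells; numbers are from one replicate; inactives centre near -14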
Mtb hypoxia rep growth – also measured in Mtb hypoxia rep; calls as there; growth inhibition, %; measured here: M. tuberculosis growth (absorbance);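 0% = vehicle and 100% = reference antibiotic; read after six days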
Active calls of the source: *; u = inconclusive; x = not tested or not shown.

Structure	Autofluor counter	RN4220 kill	ugtP null kill	BJeLR viability	Mtb hypoxia rep	Mtb hypoxia rep growth	PrP 5UTR inh
Cc1ccc(CNc2nc3ccccc3n2C)o1	3532	-5.8	3	1	-3	6	-47
Cc1cccc(NC(=O)CSc2nnc(-c3ccccc3)n2N)c1	20752*	5.3	-12	0	2	9	3
CCC(Sc1nc(N)cc(=O)[nH]1)C(=O)Nc1cc(C)on1 (stereo unspecified)	4495	2.8	1	-14	5	-1	-5
COC(=O)c1ccc(Cn2nc([N+](=O)[O-])c(Br)c2C)cc1	4025	2.7	1	-6	6	-7	-24
COC(=O)CCN(C(C)=O)c1ccc(N)cc1	4721	1.9	5	-1	x	x	-13
CC(=O)c1ccc(S(=O)(=O)Oc2ccc(-c3ccc(C(=O)O)cc3)cc2)cc1	3541	8.3	-4	7	7	6	-2
COc1ccccc1S(=O)(=O)N1CCC(C(=O)O)(c2ccccc2)CC1	5406	0.0	2	0	-13	-5	-2
COCCn1c(SCC(=O)c2c(N)n(C3CC3)c(=O)[nH]c2=O)nc2ccccc21	3738	1.7	-2	x	22	8	-51
COCCOC(=O)C1=C(C)NC(=O)NC1c1ccc(-c2ccc(F)cc2)o1 (stereo unspecified)	4469	4.0	6	-4	6	12	-3
COCCNC(=O)c1ccc2c(c1)C(=O)c1ccccc1-2	3757	1.2	2	-7	13	-6	-10
Cc1ccc(N(CC(=O)NCc2ccccn2)S(=O)(=O)c2ccccc2)cc1C	3047	4.0	7	0	21	10	-9
Cc1ccc(C(=O)NCC(=O)OCN2C(=O)c3ccccc3C2=O)cc1C	6764	6.7	5	x	4	5	-13
N#Cc1c2c(c(-c3ccccc3Cl)[nH]c1=S)CCCC2	4233	7.5	-4	x	1	12	-14
CCOC(=O)c1ccc(NC(=S)N2CCN(CCN=CC3=C(O)CC(C)(C)CC3=O)CC2)cc1	4400	3.8	11	4	5	6	-13
Cc1nc(Cl)cc(N/N=C/c2ccccc2)n1	4213	x	x	0	x	x	-9
FC(F)Oc1ccc(-n2cc(-c3ccccc3)[n+]3c2CCCCC3)cc1	5598	1.2	2	12	-4	2	-21
COc1ccc(C(=O)Nc2nnc(CC(=O)N/N=C/c3ccc(O)cc3O)s2)cc1	2701	x	x	-5	x	x	-5
CN(C)C1(CNC(=S)Nc2ccccc2C(F)(F)F)CCCCC1	5785	-0.6	-12	x	-10	2	-30
O=C(O)c1ccccc1NC1CCCCC1NS(=O)(=O)c1ccccc1 (stereo unspecified)	4339	2.7	3	-5	7	9	-10
CN(C)c1ccc(/C=N/NC(=O)c2ccccc2)cc1	2026	x	x	2	x	x	-125

More records follow:
Structure	Autofluor counter	RN4220 kill	ugtP null kill	BJeLR viability	Mtb hypoxia rep	Mtb hypoxia rep growth	PrP 5UTR inh
O=C(c1ccco1)N1CCN(c2ccc([N+](=O)[O-])c(N3CCOCC3)c2)CC1	5217	8.4	3	-4	9	1	-9
CC(/C=N/NC(=O)c1nnn(-c2nonc2N)c1CN1CCCCC1)=C\c1ccccc1	4398	x	x	2	x	x	-8
CCN(CC)S(=O)(=O)c1ccc(F)c(C(=O)OC2CC(C)OC2=O)c1 (stereo unspecified)	5671	2.5	2	-1	-2	3	-21
Cc1ccc(NC(=O)c2ccc(Nc3c([N+](=O)[O-])cc([N+](=O)[O-])cc3[N+](=O)[O-])cc2)cc1	2624	62	49	-3	46*	18*	-35
CC=C1COC(C(=O)NCCN2CCCC2)(C(F)(F)F)C=C1C=C1CCCCC1 (stereo unspecified)	x	3.0	5	x	9	8	x
CCN1CCN(Cc2c(O)ccc3c(=O)c(-c4ccc(OC)c(OC)c4)c(C(F)(F)F)oc23)CC1	5575	3.1	0	-2	3	4	-18
O=c1[nH]cc(N(CCO)CCO)c(=O)[nH]1	3373	2.4	10	4	4	0	-13
Cc1ccc2nc(N(CCCN(C)C)C(=O)CN3C(=O)c4ccccc4C3=O)sc2c1	4382	-2.2	-1	17	5	8	-32
CC(Cl)C(=O)Nc1ncc(C(F)(F)F)cc1Cl (stereo unspecified)	10385	4.9	2	-3	4	6	-21
CS(=O)(=O)c1cccc(-c2csc(N3CCC(C(N)=O)CC3)n2)c1	3842	-8.2	0	x	8	6	-17
COc1cc(NC(=O)C/C(C)=N/NC(=O)C(=O)NC2CCCCC2)c(OC)cc1Cl	3931	x	x	0	x	x	3
COc1cccc(NC(=O)CSc2nnc(-c3cccs3)n2C)c1	3450	-13	3	-8	9	0	-13
O=C(COc1cc2oc(=O)c3c(c2cc1Cl)CCC3)Nc1ccc(CN2CCOCC2)cc1	4229	3.7	20	-2	-4	-8	-3
Cc1ccc(CC(=O)Nc2ccc(S(=O)(=O)N3CCOCC3)cc2)cc1	3073	3.0	11	16	0	2	-9
C[C@]12CCC3C(CC[C@H]4C[C@@H](O)CC[C@]34C)C1CC[C@@H]2O (stereo partly specified)	2952	5.2	14	x	4	2	9
Oc1c(C(c2cccs2)N2CCOCC2)sc2ncnn12 (stereo unspecified)	5155	6.7	4	0	-1	1	-30
CCC(C(=O)O)N1C(=O)C2CCCCC2C1=O (stereo unspecified)	5432	2.7	2	-2	-7	-7	-11
CCN1CCN(C(=O)CN(Cc2ccccc2)S(C)(=O)=O)CC1	3460	1.1	4	-7	8	4	-17
COc1ccc(NC(=O)C(CC(C)C)NC(=O)C2CCC(C)CC2)cc1 (stereo unspecified)	3637	1.3	8	5	1	8	-1
O=C(c1ccc(Cl)s1)N1CCN(S(=O)(=O)c2ccc(Cl)cc2)CC1	2846	4.9	6	x	4	3	-4

Later entries.
Structure	Autofluor counter	RN4220 kill	ugtP null kill	BJeLR viability	Mtb hypoxia rep	Mtb hypoxia rep growth	PrP 5UTR inh
COc1ccc(-c2nc(SCC(=O)NC3CCCC3)c(-c3ccc(OC)cc3)[nH]2)cc1	4223	-3.2	13	2	5	4	-1
O=[N+]([O-])/C=C/c1cc2ccccc2[nH]1	4224	8.7	-8	-4	3	2	-31
COc1ccc(/C=C/c2nc3ccccc3n2C)cc1	2977	17	1	80*	4	6	1
CCOc1cc(C(=O)NN=CC2CC=CCC2)cc(OCC)c1OCC (stereo unspecified)	x	1.5	3	x	-9	-3	x
CCOC(=O)CC(NC(=O)c1cccs1)c1ccc(C)cc1 (stereo unspecified)	2968	-0.4	12	8	10	-1	-19
O=C(Nc1nc2ccc(F)cc2s1)C1=NN(c2ccccc2)C(=O)CC1	2441	1.8	-6	-4	13	7	-19
COc1ccccc1NS(=O)(=O)c1cccc(C(=O)NNC(=O)c2ccc(Cl)nc2)c1	3688	8.7	4	x	9	15	-13
CCOP(=O)(OCC)c1ccc(O)cc1	2640	2.0	6	-14	16	9	-16
Cc1csc(N=CN(C)C)c1C#N	x	-2.8	-1	x	2	16	x
O=C(Nc1ccc(N2CCCC2)cc1)c1cccc(-c2cc3ccccc3oc2=O)c1	1936	7.8	0	-3	3	3	-19
Cc1cc(NCCCn2ccnc2)n2nc(-c3ccc(Cl)cc3)cc2n1	7137	2.3	-7	3	20	11	-16
COc1ccccc1NC(=S)N(CCCN(C)C)Cc1cc2cc3c(cc2[nH]c1=O)OCO3	4497	3.2	9	-12	-1	4	-24
Cc1nc([N+](=O)[O-])c(SCC(O)CCl)n1Cc1ccc(Cl)cc1 (stereo unspecified)	4862	2.0	-6	1	9	4	-23
Cc1cc(N)n(-c2ccc3ccccc3c2)n1	u	3.1	2	2	-4	-9	-28
Cc1cc2ccccn2c1C(C[N+](=O)[O-])c1ccc(N(C)C)cc1 (stereo unspecified)	2476	21	-3	4	5	-5	-9
CC(C(=O)Nc1ccccc1)N1CCN(C(=O)c2ccco2)CC1 (stereo unspecified)	2837	3.5	7	x	-4	-3	-12
COc1ccc(-n2c(O)c(C=NNS(=O)(=O)c3ccc(C)c([N+](=O)[O-])c3)c3ccccc3c2=O)cc1OC	x	8.5	-7	x	-1	2	x
COc1ccc(S(=O)(=O)N2CCCCC2)cc1NC(=O)CCNC(=O)c1ccccc1Cl	4631	-1.1	-2	x	-1	0	-11
Cc1sc2ncnc(N3CCC(C(=O)Nc4nnc(SCc5ccccc5F)s4)CC3)c2c1C	u	7.6	-5	0	11	2	-21
CC(=O)NC/C(C)=N\Nc1ccc([N+](=O)[O-])cc1	3627	x	x	5	x	x	-11

(further entries)
Structure	Autofluor counter	RN4220 kill	ugtP null kill	BJeLR viability	Mtb hypoxia rep	Mtb hypoxia rep growth	PrP 5UTR inh
O=C(COC(=O)c1ccccc1)Nc1cc(S(=O)(=O)N2CCCCCC2)ccc1Cl	8422	1.9	11	x	-3	5	-11
O=C1NC(=O)C2(C(=O)N1)C(c1ccc(F)cc1)NC(=S)NC2c1ccc(F)cc1 (stereo unspecified)	4037	0.7	-1	-1	-2	4	-2
CCC(C(=O)NCCc1ccc(S(N)(=O)=O)cc1)c1ccccc1 (stereo unspecified)	3045	1.4	0	-5	1	0	-9
COc1ccc(N2CCN(C(=O)Cc3ccc(OC)c(OC)c3)CC2)cc1	3862	1.0	5	-6	6	13	-10
O=C(Cc1coc(-c2ccc(F)cc2)n1)NC1CCCCC1	3182	-4.6	-4	1	18	16	-26
COc1cc(CNCCCN2CCOCC2)ccc1OCC(=O)NC(C)(C)C	3278	3.0	2	-16	-16	-3	-2
CCCc1cc(=O)oc2c(C)c(O)c(CN3CCCCC3)cc12	11540	1.2	-1	-2	-7	4	-18
CC(=O)Nc1ccc(S(=O)(=O)NCCS(=O)(=O)N2CCN(c3ccccc3)CC2)cc1	5151	0.9	6	6	1	-4	-21
COc1cc(NC(=O)c2cc(-c3ccccc3)on2)cc(OC)c1OC	3571	4.2	8	-1	17	5	-14
CCCN(CCC)CC(O)CN(c1cc([N+](=O)[O-])ccc1OC)S(=O)(=O)c1ccccc1 (stereo unspecified)	3240	4.2	1	26	x	x	-6
Cc1sc2ncn(CC(=O)NCC3COc4ccccc4O3)c(=O)c2c1S(=O)(=O)N1CCOCC1 (stereo unspecified)	3973	-2.8	-2	-4	7	3	-18
O=C(CNC(=O)c1cn2ccccc2n1)Nc1ccc(F)c(F)c1	6212	0.0	0	7	8	-9	-61
COC(=O)C(Cc1ccccc1)NC(=O)CCC(=O)NC(C)CCc1ccccc1 (stereo unspecified)	3818	5.4	0	-9	-6	2	-6
O=c1cc(-c2ccccc2)nc2cc(-c3ccco3)[nH]n12	3534	2.0	1	2	1	-1	-19
O=C(CCN1CCc2ccccc2C1)Nc1ccccc1	3835	1.5	0	7	6	6	-3
O=S(=O)(Nc1ccc2cn[nH]c2c1)c1cc(Br)ccc1Br	3663	11	-2	x	11	8	-6
Cc1cccc2sc(N(CCN(C)C)C(=O)/C=C/c3cccs3)nc12	10552	-2.7	-20	-3	-7	-4	-17
Nn1c(Cc2ccccc2)nnc1Cc1ccccc1	3415	-0.6	3	x	19	10	-24
CC(OC(=O)c1ccccc1C(=O)N(C)C1CCCCC1)C(=O)NC1(C#N)CCCCC1 (stereo unspecified)	x	1.0	7	x	1	2	-17
COc1ccc(-n2ncc3c(N4CCN(c5cc(C)ccc5C)CC4)ncnc32)cc1	4168	9.5	0	3	0	14	-13
CC(C)CC(=O)N1CCN(C(=O)c2ccc(-c3ccccc3)cc2)CC1	3703	-3.0	1	14	5	10	7
COc1ccccc1NC(=S)NNC(=S)Nc1ccc(OC(F)F)cc1	2562	x	x	0	x	x	-24

4 entries picked at random from those above, as already listed:
Structure	Autofluor counter	RN4220 kill	ugtP null kill	BJeLR viability	Mtb hypoxia rep	Mtb hypoxia rep growth	PrP 5UTR inh
CC(OC(=O)c1ccccc1C(=O)N(C)C1CCCCC1)C(=O)NC1(C#N)CCCCC1 (stereo unspecified)	x	1.0	7	x	1	2	-17
O=S(=O)(Nc1ccc2cn[nH]c2c1)c1cc(Br)ccc1Br	3663	11	-2	x	11	8	-6
CCC(C(=O)NCCc1ccc(S(N)(=O)=O)cc1)c1ccccc1 (stereo unspecified)	3045	1.4	0	-5	1	0	-9
CC(=O)Nc1ccc(S(=O)(=O)NCCS(=O)(=O)N2CCN(c3ccccc3)CC2)cc1	5151	0.9	6	6	1	-4	-21

The order is random. About 4% of those tested had a hit in this group.
